Screening results as filed in PubChem BioAssay.
TRPML1 ag: agonists of human TRPML1 channel. Q9GZU1. TRPML1-expressing cells, Ca2+ dye fluorescence, FDSS; host cell line not named in the record; reference of the full effect not given here. activation, % (no concentration beside the values). 0.12% of 410,000 active. AID 624414; in the data active = activation above about 50%; inconclusive = about 30% to 50%; inactive = below about 30%; also: 0% is about no effect; the text of the record puts the active cut at 80%
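Tetracycline-induced TRPML1-DL cells are seeded and incubated overnight before loading with a no-wash Ca2+ dye and quencher. Agonist activity is taken from the 110 s fluorescence read following compound pin-transfer on an FDSS, before EC80 54-4 challenge.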
PINK1 modulator: PINK1 expression modulation; PINK1 immunofluorescence, high-content cytometry, 24 h; Potency, µM (highest dose often 76.6 µM), inactives show at the top dose activation (PINK1 increase), actives largely listed as activators; 0.2% of 410,000 active; AID 624263; active = well fitted activation curve with a large enough effect; inconclusive = small, poorly fitted or top-dose-only effect; inactive = flat fitted curve, though single readings scatter; cell line not stated here;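 also: potency is read from the fitted curve at half-maximal effect; % of control where 0% means no effect; nearly all actives have a fitted effect of over 65% in size; a mitochondrial uncoupler was the plate control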
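Readout is PINK1 immunofluorescence, quantified alongside mitochondrial, cell and nuclear markers by laser-scanning microplate cytometry. Cells from a stable line were exposed to compound titrations (5 concentrations) for 24 hours, with CCCP controls.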
CtBP-E1A blk: inhibitors of CtBP/E1A interaction; 0.49% of 340,000 active; activity change, % (concentration not given with the values); AlphaScreen GST-E1A/His-CtBP binding, 1536-well; hits give low values; control for the full effect not named in the record; in the data active means activity change below about -65%; inconclusive means about -30% to -65%; inactive means above about -30%; also: % is scaled to controls: 0 for no effect and ±100 for the full control effect
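Steps: dispense buffer (Tris pH 8.0, NaCl 300 mM, TCEP 1 mM, BSA, Tween 20); add 5X protein mix (GST-E1A, His-CtBP, 125 nM each); pin 23 nL compound; 2 h at 37 °C, dark; add 5X beads (50 ug/mL); 1 h; read.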
Six1-Eya2 blk: inhibitors of human Six1/Eya2 interaction; Q15475+O00167; 0.56% of 360,000 active; activity change, % (test concentration not listed); AlphaScreen GST-Six1/His-Eya2 binding, biochemical; hits give low values; control for the full effect not named in the record; in the data active = activity change below about -65%; inconclusive = about -30% to -65%; inactive = above about -30%; also: % is scaled to controls: 0 for no effect and ±100 for the full control effect; compound concentration not given in the record
Target sequence (O00167 whole entry, looked up): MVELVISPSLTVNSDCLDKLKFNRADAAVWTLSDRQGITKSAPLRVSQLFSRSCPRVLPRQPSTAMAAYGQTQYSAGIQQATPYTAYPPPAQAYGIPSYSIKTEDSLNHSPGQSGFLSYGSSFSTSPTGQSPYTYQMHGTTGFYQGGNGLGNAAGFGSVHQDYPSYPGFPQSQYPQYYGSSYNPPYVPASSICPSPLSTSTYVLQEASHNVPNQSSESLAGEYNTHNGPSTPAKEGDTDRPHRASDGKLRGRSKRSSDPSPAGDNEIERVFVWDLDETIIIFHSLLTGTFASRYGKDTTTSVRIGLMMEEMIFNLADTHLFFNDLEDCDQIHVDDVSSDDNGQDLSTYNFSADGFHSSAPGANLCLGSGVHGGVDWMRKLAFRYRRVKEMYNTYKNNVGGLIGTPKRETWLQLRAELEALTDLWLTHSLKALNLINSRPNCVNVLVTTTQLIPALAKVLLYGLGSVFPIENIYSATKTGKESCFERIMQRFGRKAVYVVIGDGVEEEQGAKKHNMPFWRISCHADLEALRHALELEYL
Target sequence (Q15475 whole entry, looked up): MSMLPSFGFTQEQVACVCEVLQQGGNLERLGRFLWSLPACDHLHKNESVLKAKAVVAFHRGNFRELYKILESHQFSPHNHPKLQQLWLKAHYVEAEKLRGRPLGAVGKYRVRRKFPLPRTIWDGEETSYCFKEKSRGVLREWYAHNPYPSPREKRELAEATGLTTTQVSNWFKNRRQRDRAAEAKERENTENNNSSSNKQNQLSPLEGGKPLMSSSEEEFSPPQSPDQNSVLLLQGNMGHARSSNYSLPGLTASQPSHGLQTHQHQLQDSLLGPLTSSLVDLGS
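Homogeneous AlphaScreen proximity assay pairing GST-Six1 with His-tagged Eya2 (added as 5X mix: 250 nM and 500 nM) in 50 mM Tris pH 8.0, 300 mM NaCl, 1 mM TCEP. Glutathione donor and nickel acceptor beads; 1 h, 37 °C, dark.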
D2 agonist: agonists of human D2 dopamine receptor (beta-arrestin); P14416; DiscoveRx PathHunter D2 beta-arrestin, luminescence, 90 min; 100% = 57 uM dopamine signal; activation, % (test concentration not listed); 0.084% of 360,000 active; AID 624465; in the data active = activation above about 40%; inconclusive = about 15% to 40%; inactive = below about 15%; also: compound concentration not given in the record; the text of the record calls up to 30% inactive
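DiscoveRx PathHunter D2 beta-arrestin cells (2,100/well) attached overnight, then compound-stimulated 90 min at 37 C in HBSS/10 mM HEPES/0.1% Tween-20 buffer; beta-galactosidase complementation read by luminescence after 1 h at ambient temperature. Dopamine 57 uM final (EC100) as control.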
TRPML1 inh: inhibitors of human TRPML1 channel; TRPML1-inducible cells, Ca2+ dye fluorescence, FDSS; hits give low values; inhibition of EC80 agonist-evoked calcium signal; Q9GZU1; activity change, negative = inhibition, % (test concentration not listed); 0.02% of 390,000 active; AID 624415; in the data active means activity change below about -50%; inconclusive means about -30% to -50%; inactive means above about -30%;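 also: stimulus is agonist 54-4 at its EC80 concentration; % is scaled to controls: 0 for no effect and ±100 for the full control effect; compound concentration not given in the record; the text of the record puts the active cut at -80%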
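Calcium fluorescence in TRPML1-DL cells induced overnight with Tet: a 110 s read after compound pin addition, then a 110 s antagonist read after challenge with 54-4 at 4 uM final (EC80).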
* = called active by the depositor; ? = inconclusive; · = no result given; [ ] = dose if it differs, or a comment.

canonical_smiles	CtBP-E1A blk	PINK1 modulator	D2 agonist	Six1-Eya2 blk	TRPML1 ag	TRPML1 inh
CN(C)CCCN(CCCN(C)C)C(=S)Nc1ccc(S(=O)(=O)N2CCOCC2)cc1	7	1.4%	-1.3	5	-0.4	-8
O=C(O)c1ccccc1SCC(=O)N1CCc2ccccc21	-5	-1.0%	-6.5	-1	-0.3	-15
O=C(CC(c1cccs1)N1Cc2ccccc2C1=O)Nc1ccc(F)cc1 (stereo not given)	·	-1.2%	·	·	2.4	-22
Cc1cccc(NC(=O)CN2C(=O)COc3ccc(Cl)cc32)c1	-7	0.0%	-0.7	-1	0.5	-2
COc1ccc(C(CNC(=O)c2cccc(S(=O)(=O)Nc3ccccc3Cl)c2)N2CCOCC2)cc1 (stereo not given)	?	-3.5%	-2.5	?	3.1	28
Cc1[nH]c2ccccc2c1C(=O)COC(=O)Cn1c(C(F)(F)F)nc2ccccc21	-3	4.8%	2.3	4	2.0	10
CC1CCCCC1NC(=O)CCN1C(=O)C2C3C=CC(C3)C2C1=O (stereo not given)	1	-1.0%	-1.4	4	0.3	5
CSCCC(NC(=O)c1ccc([N+](=O)[O-])cc1Cl)C(=O)OCC(=O)N(C)C (stereo not given)	-18	-0.1%	2.6	7	0.9	-15
CCOc1ccccc1OCCOc1cccc(C(F)(F)F)c1	63	17%	-2.1	129	3.1	15
Cc1c(C(=O)N2CCN(CCc3ccccn3)CC2)oc2ccc(Cl)cc12	-9	0.3%	-3.2	-1	-0.4	21
NC1=NN=C(N2N=C(c3ccccc3)CC2(O)C(F)(F)F)n2ncnc2C1 (stereo not given)	-70*	1.6%	-4.2	?	1.5	19
CC(NC(=O)Nc1ccccc1)C(c1ccccc1)N1CCOCC1 (stereo not given)	-15	5.1%	2.0	2	0.7	4
C/C(=N\Nc1nc(-c2ccc(C)cc2C)cs1)c1cc2ccccc2oc1=O	-4	3.5%	-1.8	-3	0.0	-5
Cc1ccccc1C(=O)N1CCC[C@@H]1C(=O)N1CCC[C@H]1C(=O)NCc1ccncc1	5	0.0%	·	3	-0.2	·
C=CCNc1scc(-c2ccccc2)[n+]1CC=C	-12	4.8%	-1.3	-26	0.0	38
CCOC(=O)CC1COCCN1Cc1cn[nH]c1-c1ccc2c(c1)OCO2 (stereo not given)	7	-0.3%	2.3	-2	-0.5	9
CCC(C)NC(=O)c1cc2cc3ccc(OC)cc3nc2o1 (stereo not given)	-4	3.9%	9.5	-22	-1.5	1
CN(C)S(=O)(=O)N1CCC(CO)(Cc2cccc(C(F)(F)F)c2)CC1	6	-0.4%	0.7	2	-1.5	-18
Cc1ccc2nc(-c3ccc(F)cc3)c(Cc3ccccn3)n2c1	-8	-0.6%	-5.3	-10	-0.4	-25
O=C(CCn1c(=O)c2sccc2n(Cc2ccccc2F)c1=O)NCc1ccc2c(c1)OCO2	·	-1.3%	·	·	0.6	9
O=C(N1CCCCCC1)N1CCN(S(=O)(=O)c2ccccc2)CC1	1	-6.8%[38.3 µM]	0.6	2	0.5	1
COc1ccccc1NC(=O)Nc1ncccc1C	-15	-0.2%	0.1	-6	-0.8	-5
Cc1ccc(CCNC(=O)C2CCN(c3nnc(-n4cccc4CNc4ccc(C)cc4)s3)CC2)cc1	·	0.0%	·	·	0.9	22
CCCCN(C(=O)c1c(-c2ccccc2)noc1C)c1c(N)n(CCC)c(=O)[nH]c1=O	4	-0.8%	-1.4	8	-0.3	-12
COc1ccc(OC)c(Nc2ncnc3c2cnn3-c2cccc(C)c2)c1	-3	11%[38.3 µM]	0.1	-10	0.7	14

Part of the list above in order of length of the SMILES, high to low.
canonical_smiles	CtBP-E1A blk	PINK1 modulator	D2 agonist	Six1-Eya2 blk	TRPML1 ag	TRPML1 inh
Cc1ccccc1C(=O)N1CCC[C@@H]1C(=O)N1CCC[C@H]1C(=O)NCc1ccncc1	5	0.0%	·	3	-0.2	·
C/C(=N\Nc1nc(-c2ccc(C)cc2C)cs1)c1cc2ccccc2oc1=O	-4	3.5%	-1.8	-3	0.0	-5
Cc1c(C(=O)N2CCN(CCc3ccccn3)CC2)oc2ccc(Cl)cc12	-9	0.3%	-3.2	-1	-0.4	21
CC(NC(=O)Nc1ccccc1)C(c1ccccc1)N1CCOCC1 (stereo not given)	-15	5.1%	2.0	2	0.7	4

The list goes on.
canonical_smiles	CtBP-E1A blk	PINK1 modulator	D2 agonist	Six1-Eya2 blk	TRPML1 ag	TRPML1 inh
COC(=O)CSc1nc(NC#N)nc(NC(C)C)n1	-3	0.7%	-3.7	-5	-0.7	4
N#CCCn1cc(C(=O)Nc2cccc(C(=O)O)c2)c(-c2ccc(Cl)cc2)n1	-7	-1.8%	-2.3	3	1.2	37
Cc1ccc(NC2CCCN(C(=O)CCC3(C)CC3)C2)cc1C (stereo not given)	-1	12%	-0.1	-22	-0.8	47
CCC(=O)c1ccc(OCC(O)CN2C(=O)NC(C)(C)C2=O)cc1 (stereo not given)	7	3.4%	0.6	6	-0.2	1
CCc1ccc(C(=O)c2cn(CC(=O)NCc3ccc(C)cc3)c3nc(C)ccc3c2=O)cc1	·	4.0%	·	·	3.1	7
CCOC1(OCC)N=C(N)C2(C#N)C(c3cccc(OC)c3OC)C12C#N (stereo not given)	0	-0.5%	-3.3	0	-0.4	5
Cc1ccc(CC(=O)Nc2ccc(F)c([N+](=O)[O-])c2)cc1	-12	0.5%	-2.7	-1	-0.7	-6
CC[C@]12c3[nH]c4cc(-c5ccco5)ccc4c3CCN1C(=O)[C@@H](CC(=O)NCCc1ccccn1)C[C@@H]2C(=O)N1CCN(C(=O)C2CC2)CC1	19	1.1%	-0.8	12	1.3	?
CO/N=C/C(=N\Nc1ccccc1)C(=O)c1ccccc1	·	6.0%	-1.7	14	4.1	4
COc1ccc(NC(=O)CN2CCOCC2)cc1	5	-1.9%	-2.2	4	1.7	7
Cc1ccc(S(=O)(=O)Nc2cccc3c2O[C@H](CN(C)C(=O)Nc2cccc4ccccc24)[C@H](C)CN([C@H](C)CO)C3=O)cc1	-1	2.2%	-5.5	-9	-0.4	-5
CN(C)CCCNC(=O)/C(=N\O)c1ccccc1	0	-1.8%	-2.8	18	0.6	71
C[C@@]12C(=O)N(CCO)CC(=O)N1[C@H](/C=C/c1ccccc1)[C@@H]1C(=O)N(c3ccccc3)C(=O)[C@@H]12	6	0.6%	-10	0	-0.3	-10
Cc1cccnc1N(C(=O)Nc1ccccc1)C1=NCC(C)(C)S1	-3	-1.6%	-2.4	6	-0.5	7
Cc1cccc(Cn2c(SCc3ccc(C(=O)NCc4cccs4)cc3)nc3ccncc32)c1	·	-0.3%	·	·	2.7	0
COc1ccccc1NC(=O)Nc1ccc(Cc2ccncc2)cc1	10	-0.6%	1.6	1	0.6	-13
COc1cc(NS(=O)(=O)c2ccc(OC)c(C)c2C)c(OC)cc1Cl	-15	3.2%	-1.8	-11	0.1	18
Cc1cc(=O)oc2cc(OCCSCCN3CCOCC3)ccc12	-9	-2.1%	-2.5	1	0.0	-23
CCN(Cc1nc(-c2ccc(OC)c(OC)c2)no1)S(=O)(=O)c1ccc(OC)cc1	·	1.4%	·	·	2.8	7
CCC(C)(C)C1CCC2(CC1)NC(CO)(CO)CO2 (stereo not given)	-2	1.1%	0.8	10	0.0	1
CCN(CC)C(=O)N1CCN(C(=O)N(CC)CC)CC1	2	14%	0.3	-1	-0.6	20
Clc1ccc(C2Nc3cccc4cccc(c34)N2)c(Cl)c1	-18	7.6%	12	-24	-0.6	-1
COCCNC(=O)C1(C)CCCN(Cc2ccc(-c3ccccc3)o2)C1 (stereo not given)	2	-0.6%	-2.3	5	-0.9	·
O=C(Nc1ccccc1)N1CCCC1c1cccs1 (stereo not given)	·	-0.6%	-4.4	8	-0.9	9
COc1ccc(C(=O)Nc2ccc(-n3nncc3-c3ccccc3)cc2)cc1OC	·	1.2%	·	·	2.5	-5
O=C(CCCCCNC(=O)N1CCn2c1nc1ccccc12)NCc1ccccc1Cl	?	0.5%	-2.4	-18	-1.0	33
Cc1ccccc1S(=O)(=O)N(CC(O)CN1C(=O)NC(C)(C)C1=O)c1ccccc1 (stereo not given)	-1	-1.6%	-3.8	-12	0.1	-11
COc1ccc(CCN2CC(C(=O)O)CC2=O)cc1 (stereo not given)	-3	6.7%[38.3 µM]	-1.6	-4	-0.4	10
Nc1c(Cl)cc(-c2cn(CCC(=O)O)c(-c3ccc(Cl)nc3)n2)cc1Cl	-1	-0.2%	-0.5	-20	-0.7	-1
CCOC(=O)C1(Cc2ccccc2C)CCCN(C(=O)c2ccc(CSC)o2)C1 (stereo not given)	-27	4.4%	-0.7	-13	0.6	15
COc1ccc(/C=C/C(=O)OCC(=O)NCCC2=CCCCC2)cc1	8	0.7%	-5.1	0	0.2	6
CCc1ccccc1Nc1nn2c(=O)c3ccc(C(=O)Nc4ccc(OC)cc4)cc3nc2s1	·	-2.5%	·	·	0.5	15
COC(C(=O)NNC(=O)Cc1ccc(Cl)cc1)c1ccccc1 (stereo not given)	5	0.1%	0.8	-2	0.2	11
O=C1C=C(Nc2cccc(Cl)c2)CC(c2ccco2)C1 (stereo not given)	-2	·	-0.7	-4	0.5	-11
O=C(c1cccs1)N1CCN(Cc2cn[nH]c2-c2ccc(F)cc2F)CC1	-8	-1.4%	?	2	-0.5	-19
COCCn1c(C)cc(C(=O)CSc2nnc(C)s2)c1C	-2	-0.2%	-3.3	-3	0.5	-1
COc1cccc(N2CCN(C(=S)Nc3ccccc3)CC2)c1	0	1.4%	2.7	-3	0.6	17
O=C1c2ccccc2C(=O)N1Cc1cnc(N2CCN(c3ccccc3)CC2)s1	-1	2.5%	-0.6	-1	1.0	-17
CN1CCN(c2ncnc3c2c(-c2ccccc2)cn3-c2ccc(F)cc2)CC1	-23	-0.2%	-11	-24	-0.5	-18
Cc1c(Cl)cccc1NC(=O)NCc1ccncc1	13	-0.6%	-2.9	9	-0.7	-10
COC(=O)C1=C(N)Oc2cc(C)n(Cc3cccnc3)c(=O)c2C1c1ccc(OC)c(OC)c1OC (stereo not given)	-2	-1.8%	-3.1	-6	-0.4	4
CCN1C(=O)/C(=C2/Sc3ccccc3N2CC)S/C1=N\c1ncn[nH]1	2	1.1%	-1.3	-13	-1.3	28
Cc1cc(=O)c2c(O)c(O)ccc2o1	1	-2.2%	7.4	3	1.0	0
COc1ccc(CN2CCNC(=O)C2CC(=O)NCC(C)(C)N2CCOCC2)cc1C (stereo not given)	7	-0.4%	-0.4	3	-0.5	-8
Cc1ccc(S(=O)(=O)NCCCNS(=O)(=O)c2ccccc2[N+](=O)[O-])cc1	-27	1.3%	6.1	1	0.9	-7
